CSC inhib – cancer stem cell viability inhibitors, primary screen, luminescence | cancer stem cell-like cells viability | inhibition, % at 7.5 µM | 300,000 compounds, 1.1% hits | AID 2717, 2010;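 active = mean at 75% or more and at least half the replicates too; tested in HMLE shEcad cells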;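 also: 0% = median of negative and 100% = median of positive control wells; the first replicate is given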
Rce1 inhib – yeast Rce1p protease inhibitors, primary screen, biochemical, fluorescence, cell-free homogeneous; 290,000 compounds, 0.27% hits; CAAX prenyl protease 2 (Saccharomyces cerevisiae (strain ATCC 204508 / S288c)), Q03530; yeast membranes, quenched prenylated peptide cleavage fluorescence; calls only; AID 2563, 2010;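 active = fall in fluorescence gain of 50% or more versus controls, with final raw signal at or below 3038400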;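 also: plate controls were neutral control wells for no effect and wells lacking membranes for full effect; tested at 10 µM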
Target sequence (Q03530 whole entry, looked up): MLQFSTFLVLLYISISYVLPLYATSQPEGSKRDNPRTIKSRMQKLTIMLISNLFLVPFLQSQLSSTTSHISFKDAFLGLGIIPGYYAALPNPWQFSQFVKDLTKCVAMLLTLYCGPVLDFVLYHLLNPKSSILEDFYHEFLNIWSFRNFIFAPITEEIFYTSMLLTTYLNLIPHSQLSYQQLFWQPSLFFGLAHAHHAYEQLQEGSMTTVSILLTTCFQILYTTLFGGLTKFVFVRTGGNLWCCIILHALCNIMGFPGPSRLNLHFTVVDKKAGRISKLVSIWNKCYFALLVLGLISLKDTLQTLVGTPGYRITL
PABP polyA inh – PABP poly(A) RNA binding inhibitors, primary screen, biochemical, fluorescence polarization, uHTS. Polyadenylate-binding protein 1 (Homo sapiens), P11940. inhibition, % at 35 µM. 290,000 compounds, 1% hits;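 active = 50% or more with normal probe brightness, or confirmed in later tests; about a fifth of its hits are not listed in these tables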;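 also: calls also rest on retests at 20 µM and on dose response follow-up; controls were probe without protein and protein plus probe with vehicle; some compounds called inactive have numbers as strong as hits; many hits fall short of the cut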
Target sequence (P11940 whole entry, looked up): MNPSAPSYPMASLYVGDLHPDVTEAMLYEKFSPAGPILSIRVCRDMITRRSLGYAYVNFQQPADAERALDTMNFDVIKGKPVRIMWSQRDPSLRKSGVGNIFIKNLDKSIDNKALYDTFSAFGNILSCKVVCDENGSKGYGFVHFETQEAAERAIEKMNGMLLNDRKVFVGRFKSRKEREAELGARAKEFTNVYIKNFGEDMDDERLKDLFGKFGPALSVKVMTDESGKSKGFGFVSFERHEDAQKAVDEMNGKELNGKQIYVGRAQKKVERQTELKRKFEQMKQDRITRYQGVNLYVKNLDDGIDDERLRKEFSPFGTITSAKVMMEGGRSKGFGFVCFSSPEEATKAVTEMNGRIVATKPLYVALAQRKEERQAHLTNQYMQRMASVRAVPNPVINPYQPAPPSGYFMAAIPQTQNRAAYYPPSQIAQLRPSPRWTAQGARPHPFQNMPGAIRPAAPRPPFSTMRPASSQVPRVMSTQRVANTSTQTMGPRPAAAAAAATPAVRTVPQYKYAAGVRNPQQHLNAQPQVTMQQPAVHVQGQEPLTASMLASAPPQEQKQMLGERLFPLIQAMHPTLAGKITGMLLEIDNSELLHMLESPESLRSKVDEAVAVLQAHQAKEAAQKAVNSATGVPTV
Yeast UUG start – modulators of yeast start codon fidelity, primary screen, whole organism, S. cerevisiae, single point, plate reader | activity score, % at 18.7 µM | 350,000 compounds, 0.13% hits | AID 602363, 2012 | S. cerevisiae UUG-firefly luciferase reporter, luminescence/redox ratio;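 active = replicate mean at a twofold rise or more, about +100% in these data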;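 also: firefly luciferase made from a UUG start codon reports start codon fidelity; reporter light over untreated wells divided by growth signal over untreated wells; some hits fall short of that in this replicate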
Env fusion inh – inhibitors of HIV-1 Env-driven cell-cell fusion, primary screen, HeLa-JRFL effector, CEM21 target cells, luciferase | inhibition, % at 12.3 µM | AID 651610, 2012 | 360,000 compounds, 1.1% hits;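 active = mean replicate inhibition score of at least 50 and every replicate individually at or above 50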;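 also: 0% = plate neutral controls and 100% = maraviroc near 300 nM; one replicate is shown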
eIF4H inh – human eIF4H binding inhibitors, primary screen, translation initiation inhibitor project, biochemical, uHTS, fluorescence polarization. Eukaryotic translation initiation factor 4H (Homo sapiens), Q15056. eIF4H fluorescence polarization binding assay. inhibition, % at 35 µM. 290,000 compounds, 0.94% hits;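 active = 50% or more with normal probe brightness, or confirmed in later tests; about a fifth of its hits are not listed in these tables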;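 also: calls also rest on retests at 20 µM and on dose response follow-up; 0% = protein and probe with vehicle and 100% = probe without protein; strong numbers were not always called active; many hits fall short of the cut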
MT1-MMP act inh – blockers of MT1-MMP proenzyme processing, primary screen, HT1080 RFP-PRO-GFP cells, GFP/RFP fluorescence; Matrix metalloproteinase-14 (Homo sapiens), P50281; GFP/RFP ratio fluorescence, overnight; percent of plate control window, DMSO zero; GFP/RFP ratio change, % at 20 µM; 360,000 compounds, 0.061% hits; AID 651647, 2012;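 active = GFP/RFP ratio change of at least 30% with cell ATP level not reduced by more than half and red fluorescence within 50% of control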; also: strong numbers were not always called active
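Assay system – RFP-PRO-GFP reporter HT1080 cells · Compound dosing – single dose of 20 µM compound, 1% DMSO final · Incubation – overnight compound exposure at 37 °C · Measure – GFP/RFP fluorescence ratio · Benchmarks – DMSO wells and RFP-L50D-GFP cells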
eIF4H inh retest – second read-out of eIF4H inh, no call of its own (marks repeat the call); inhibition, %; compound at 20 µM; confirmation average;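 mean of two retest wells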
PABP polyA inh retest – also measured in PABP polyA inh; calls as there; inhibition, %; compound at 20 µM; confirmation repeats;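 mean of two retest wells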
MT1-MMP act inh RFP – also measured in MT1-MMP act inh; calls as there; RFP signal change, %; measured here: RFP expression control read;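 0 = vehicle wells; hits needed this value within 50% of zero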
Active calls of the source: *; i = inactive; . = no result given.

Start of the listing, in advance, 5 compounds:
SMILES	CSC inhib	Rce1 inhib	PABP polyA inh	Yeast UUG start	Env fusion inh	eIF4H inh	MT1-MMP act inh	MT1-MMP act inh RFP	others
O=C(COC(=O)c1ccccn1)Nc1nccs1	-5	i	0	6	-23	3	3	1
COc1ccc(OCC(O)COc2ccc(C(=O)O)cc2)cc1 (stereo unspecified)	4	i	3	-4	-73	-5	5	9
Cc1ccc(NS(=O)(=O)c2ccc(C(=O)NCc3ccc(S(N)(=O)=O)cc3)cc2)cc1	-17	.	.	-4	-6	.	5	-10
COc1ccccc1CNC(=O)CN1C(=O)NC2(CCCc3ccccc32)C1=O (stereo unspecified)	-5	.	.	-3	5	.	-3	1
CN1CCN(NC(=O)c2ccc(Br)s2)CC1	-19	i	-2	-9	15	-5	0	3

The listing, from the first entry:
SMILES	CSC inhib	Rce1 inhib	PABP polyA inh	Yeast UUG start	Env fusion inh	eIF4H inh	MT1-MMP act inh	MT1-MMP act inh RFP	others
O=C(COC(=O)c1ccccn1)Nc1nccs1	-5	i	0	6	-23	3	3	1
COc1ccc(OCC(O)COc2ccc(C(=O)O)cc2)cc1 (stereo unspecified)	4	i	3	-4	-73	-5	5	9
Cc1ccc(NS(=O)(=O)c2ccc(C(=O)NCc3ccc(S(N)(=O)=O)cc3)cc2)cc1	-17	.	.	-4	-6	.	5	-10
COc1ccccc1CNC(=O)CN1C(=O)NC2(CCCc3ccccc32)C1=O (stereo unspecified)	-5	.	.	-3	5	.	-3	1
CN1CCN(NC(=O)c2ccc(Br)s2)CC1	-19	i	-2	-9	15	-5	0	3
Cc1cc(C)nc(/N=C(\N)Nc2cccc(OCc3ccccc3)c2)n1	-12	.	-8	4	-16	-9	-1	-17
Cc1ccc(C(=O)NCC(c2ccco2)N2CCc3ccccc3C2)cc1 (stereo unspecified)	0	i	.	2	-39	.	-3	-2
Cc1ccc(S(=O)(=O)NC(=O)NCc2ccccn2)cc1	-12	i	0	.	.	6	-5	-1
C=C1CCC[C@]2(C)C[C@H]3OC(=O)C(CNCC(C)C)[C@H]3CC12 (stereo partly specified)	-4	i	2	16	34	-6	-8	-9
CCOC1=C(C#N)CC2(CC1)c1ccccc1-c1ccccc12	.	.	.	16	17	.	-1	-6
Cc1cc(C)n(Cc2ccc(C(=O)N/N=C/c3ccc(-c4ccc([N+](=O)[O-])cc4)o3)o2)n1	3	i	0	-8	10	37	2	-2
O=C(Cn1c(NCCO)nc2ccccc21)NCCc1ccc(F)cc1	-6	i	5	-15	.	2	1	-3
O=C(CSc1nnc(CNC(=O)c2cccc(C(F)(F)F)c2)o1)NCC1CCCO1 (stereo unspecified)	-3	i	-14	-17	1	-1	-1	7
COc1ccccc1NC(=O)c1ccc(C)c(S(=O)(=O)N2CCCCC2)c1	-5	i	-10	2	-4	1	8	3
FC(F)(F)c1cccnc1Oc1ccc(C2=NCCS2)cc1	9	i	-12	-5	7	-4	0	-5
O=C(N/N=C/c1cn[nH]c1-c1ccc(Cl)cc1)c1ccc([N+](=O)[O-])cc1	15	i	9	.	12	-7	5	2
Cc1nn(-c2ccccc2)c2nc3c(cc12)C(=O)CCC3	-3	i	-8	.	-16	7	-3	2
CC(C)N(C(=S)Nc1cccc(S(=O)(=O)N(C)C)c1)c1ccccc1	-9	i	7	-2	8	0	-6	-1
COc1ccc(C2C(C#N)=C(N)N(c3ncn[nH]3)C3=C2C(=O)CCC3)cc1 (stereo unspecified)	-25	i	10	.	9	1	0	5
Cc1cc(=O)[nH]c(SCC(=O)Nc2cccc(C(F)(F)F)c2)n1	10	i	-2	-11	.	-9	0	-3
CCN(CC)CCn1c2ccccc2c2nc(C)sc21	.	i	12	-23	.	-5	-8	-4
C=CCOc1ccc(/C=N/NC(=O)CN2CCOCC2)cc1OCC	17	i	15	-2	-10	-1	1	2
Cc1c(Cl)c(C(F)(F)F)nn1CC(=O)NCc1ccccc1	10	i	-4	-9	.	-1	8	4
O=c1cc(N2CCC3(CC2)OCCO3)[nH]c(=O)n1-c1ccc(Br)cc1	.	i	-2	-13	.	-9	0	4
O=C(Cn1c(=O)oc2ccccc21)N1CCCC1	-2	i	-6	-12	13	8	-4	1
CN(/N=C/c1ccccc1O)C(=S)c1ccccc1	21	i	-5	-4	0	-11	-2	0
CC1CCc2nc3ccc(S(=O)(=O)N4CCC(C(=O)NC(C)c5ccccc5)CC4)cc3c(C(=O)O)c2C1 (stereo unspecified)	-9	i	0	-15	1	-2	-5	-1
CN(C)C(=S)SCC(=O)Nc1cccc(C(F)(F)F)c1	-4	i	8	-6	-7	8	-1	-3
Cc1cccnc1N(C(=O)Nc1cccc(Cl)c1)C1=NCC(C)(C)S1	7	i	-4	.	-16	-7	0	3
CCC12CC3CC(C1)CC(C(=O)NNC(N)=O)(C3)C2	-12	.	-11	-11	-9	-11	-1	-1
O=C1NC(=O)/C(=C\c2ccc(Cl)cc2Cl)N1	.	.	.	-23	-60	.	2	-1
O=C(CSc1ccccn1)Nc1ccc(N2CCOCC2)cc1	-4	i	-1	.	-10	11	1	9
Oc1ccc(C=NCCc2ccccc2)cc1	-6	i	5	-11	2	-6	3	6
COC(=O)c1ccccc1NC(=O)Cn1cc(Br)cn1	-2	i	2	5	.	-7	0	0
COc1ccc(C2C3=C(CCCC3=O)N(CC(=O)O)C3=C2C(=O)CCC3)cc1	-6	i	8	4	-18	-4	0	2
COc1ccc(N2C(=O)CC(NNc3ncc(Cl)cc3Cl)C2=O)cc1 (stereo unspecified)	8	i	-2	.	6	-17	-9	3
CCCC1=C(C(=O)OCC)C(c2ccc(OC)c(C)c2OC)C(C#N)=C(N)O1 (stereo unspecified)	10	i	-4	.	-24	-8	1	6
O=C(/C=C/c1c[nH]c2ccccc12)c1ccccc1	16	i	-6	-15	-264	-2	5	-1
CCOc1ccc(C(C(=O)NC2CCCCC2)N(C(=O)c2ccccn2)c2cccnc2)cc1 (stereo unspecified)	-16	i	7	.	10	-5	-1	6
CCCNC(=O)C1(C)CCN(C(=O)Cc2ccc3ccccc3c2)C1 (stereo unspecified)	.	.	.	-7	14	.	-2	-1
CS(=O)(=O)Nc1ccc(C(=O)Nc2ccc3ccccc3c2)cc1	45	i	-4	-15	-168	-4	10	0
Cc1c(NC(C)C)c(=O)n(-c2ccccc2)n1C	-9	.	.	-7	30	.	0	4
CC(C)C(=O)Nc1nnc(CCN2CCCCC2)s1	-3	i	-1	-19	-62	-6	-2	2
CCC(c1nc2ccccc2[nH]1)N(CCCn1ccnc1)C(=O)c1ccc(C(F)(F)F)cc1 (stereo unspecified)	.	.	.	-6	-12	.	-2	-4
CCCC1(c2ccccc2)NC(=O)N(CC(=O)c2[nH]c(C)c(C(=O)OCC)c2C)C1=O (stereo unspecified)	-6	i	-2	-9	.	-3	-10	-11
ClCC1CSC(=NC23CC4CC(CC(C4)C2)C3)O1 (stereo unspecified)	-1	i	5	.	6	-1	-6	-8
Cc1ccc(N2C(=O)c3oc4ccccc4c(=O)c3C2c2cccc(O)c2)nc1 (stereo unspecified)	-6	i	.	-15	-21	.	-1	-3
O=C(O)c1c[nH]c2ccc(S(=O)(=O)N3CCN(c4ccc(F)cc4)CC3)cc2c1=O	8	i	2	6	.	-6	1	2

Reprinted from the part before: three compounds; new compounds follow.
SMILES	CSC inhib	Rce1 inhib	PABP polyA inh	Yeast UUG start	Env fusion inh	eIF4H inh	MT1-MMP act inh	MT1-MMP act inh RFP	others
ClCC1CSC(=NC23CC4CC(CC(C4)C2)C3)O1 (stereo unspecified)	-1	i	5	.	6	-1	-6	-8
Cc1ccc(N2C(=O)c3oc4ccccc4c(=O)c3C2c2cccc(O)c2)nc1 (stereo unspecified)	-6	i	.	-15	-21	.	-1	-3
O=C(O)c1c[nH]c2ccc(S(=O)(=O)N3CCN(c4ccc(F)cc4)CC3)cc2c1=O	8	i	2	6	.	-6	1	2
O=c1[nH]c2ccc(Br)cc2c(-c2ccccc2)c1N1CCOCC1	-8	i	0	-14	4	3	-13	-13
c1cncc(-c2nnc(SCc3nc4ccccc4[nH]3)o2)c1	-24	i	11	.	-28	-1	3	3
CC(C)(C)c1ccc(S(=O)(=O)NCC2CCCO2)cc1 (stereo unspecified)	-29	i	-14	-1	-3	4	-1	-2
Cc1ccc(OCCCNC2CCCC2)cc1	.	i	-1	.	4	25	1	4
CC1CCN(CCNC(=O)c2ccc3c(=O)n(Cc4ccc(Cl)cc4)c(=S)[nH]c3c2)CC1	-7	i	-28	-8	.	-7	-5	-7
Cc1ccc(CNC(=O)CCNC(=O)Cn2ccc3ccccc3c2=O)cc1	0	i	6	-14	1	0	1	0
COCC(=O)N1CCC(Oc2ccc(C(=O)N3CCSCC3)cc2)CC1	4	i	-7	-29	2	-14	-1	2
C/C(CC(=O)Nc1cccnc1)=N\NC(=O)C(=O)NC(C)C	-5	i	-3	-15	-3	3	4	5
N#CCc1nc(-c2cc3ccccc3oc2=O)cs1	0	i	5	.	-37	55	-9	1	eIF4H inh retest=-4;PABP polyA inh retest=10

Compound activity (PubChem)
